gsp antag – antagonizes gsp, the McCune-Albright syndrome mutation; gsp-mutant cells, cAMP HTRF, 30 min; control for the full effect not named in the record; 340,000 tested, 0.4% active; Potency, µM (top dose mostly 76.9 µM), for inactives: at the top dose activity change, negative = inhibition, usual class: inhibitors; active = falling curve of any shape with a large fitted effect; inconclusive = falling curve, mostly with a smaller effect; inactive = flat or rising curve; cell line not stated here;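 note: intracellular cAMP measured with PDE inhibitor Ro 20-1724 present during compound exposure; potency is the fitted concentration of half-maximal effect; % is set by controls: 0 for no effect and ±100 for the full control effect; nearly all actives have a fitted effect of over 65% in size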
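HTRF cAMP read-out (cAMP-d2 plus anti-cAMP antibody-K in lysis buffer, 30 min RT). Before lysis, cells are exposed to compounds with […] for 30 min at 37C in DPBS containing Ca/Mg, BSA and Tween 20.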
Six1-Eya2 blk – inhibitors of human Six1/Eya2 interaction | AlphaScreen GST-Six1/His-Eya2 binding, biochemical; stronger effect = lower value; control for the full effect not named in the record | 360,000 tested, 0.56% active | activity change, % (test concentration not listed); in the data active = activity change below about -65%; inconclusive = about -30% to -65%; inactive = above about -30%; note: % is set by controls: 0 for no effect and ±100 for the full control effect; compound concentration not given in the record
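Six1/Eya2 binding was read as AlphaScreen signal after compounds were pinned into GST-Six1 plus His-tagged Eya2 (5X stock 250/500 nM) in pH 8.0 Tris/NaCl/TCEP buffer, beads added, then incubated 1 h, 37 C, dark.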
D2 potentiator – human D2 receptor positive allosteric modulation. 360,000 tested, 0.23% active. DiscoveRx D2 beta-arrestin cells, luminescence, 90 min; 100% = 57 uM dopamine signal. P14416. AID 624464. potentiation, % (concentration not given with the values); active = potentiation of 50% or more; inconclusive = 30% to 50%; inactive = 30% or less;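 note: compound concentration not given in the record; tested on top of an EC20 dose of dopamine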
Target sequence (P14416 whole entry, looked up): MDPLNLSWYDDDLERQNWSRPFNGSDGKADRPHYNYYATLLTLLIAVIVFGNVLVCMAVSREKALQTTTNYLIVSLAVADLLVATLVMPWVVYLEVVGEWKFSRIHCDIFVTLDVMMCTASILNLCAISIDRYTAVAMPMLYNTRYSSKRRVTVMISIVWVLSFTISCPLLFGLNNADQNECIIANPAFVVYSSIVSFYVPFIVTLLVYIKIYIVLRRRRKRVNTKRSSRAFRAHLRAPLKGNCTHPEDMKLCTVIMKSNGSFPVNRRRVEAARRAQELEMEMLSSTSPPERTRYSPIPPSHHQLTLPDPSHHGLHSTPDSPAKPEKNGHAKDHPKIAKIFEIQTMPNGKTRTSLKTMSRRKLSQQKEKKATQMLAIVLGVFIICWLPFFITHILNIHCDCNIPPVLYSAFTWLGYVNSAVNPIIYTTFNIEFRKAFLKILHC
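PathHunter D2 cells, attached overnight at 37 deg C, received compound in DMSO plus dopamine at EC20 (50 nM final) for 90 min at 37 deg C. Beta-arrestin recruitment was read as luminescence after 1 h with detection reagent at ambient temperature.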
gsp agonist – agonists of gsp mutant (McCune-Albright syndrome). gsp mutant cells, cAMP HTRF, 30 min; control for the full effect not named in the record. Potency, µM (doses to about 76.9 µM), for the others: top-dose activation (cAMP increase), actives largely listed as activators. 340,000 tested, 0.13% active. AID 624287; active = well fitted activation curve with a large enough effect; inconclusive = small, poorly fitted or top-dose-only effect, or another doubt; inactive = no such curve, though single readings can be large or run the other way; cell line not stated here;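 note: phosphodiesterase inhibitor Ro 20-1724 added with compounds to block cAMP breakdown; potency is the fitted concentration of half-maximal effect; nearly all actives have a fitted effect of over 60% in size; about a fifth of the inactives were tested at one dose only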
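Cells stably selected in G418 were plated at 2000/well, grown 16-24 hr, then given compounds in DMSO with the PDE inhibitor […] (300 uM solution added) for 30 min at 37C; cAMP was read by HTRF.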
D2 agonist – activates the human D2 dopamine receptor | 360,000 tested, 0.084% active | activation, % (concentration not given with the values) | P14416 | AID 624465 | DiscoveRx PathHunter D2 beta-arrestin, luminescence, 90 min; 100% = 57 uM dopamine signal; in the data active = activation above about 40%; inconclusive = about 15% to 40%; inactive = below about 15%; note: compound concentration not given in the record; the text of the record calls up to 30% inactive
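Agonist mode: compounds alone added to overnight-plated D2 PathHunter cells for 90 min at 37 C, with 57 uM final dopamine (EC100) defining full response. Beta-arrestin recruitment detected by chemiluminescent reagent, read after 1 h at ambient temperature.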
CtBP-E1A blk – CtBP/E1A binding inhibition; AlphaScreen GST-E1A/His-CtBP binding, 1536-well; stronger effect = lower value; control for the full effect not named in the record; activity change, % (test concentration not listed); 340,000 tested, 0.49% active; in the data active means activity change below about -65%; inconclusive means about -30% to -65%; inactive means above about -30%; note: % is set by controls: 0 for no effect and ±100 for the full control effect; compound concentration not given in the record
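Protein mix (5X: 125 nM each GST-E1A, His-CtBP) was incubated with pinned compound 2 h at 37 deg C in dark, in 50 mM Tris pH 8.0 buffer with 300 mM NaCl. Glutathione donor and nickel acceptor beads followed; AlphaScreen signal read after 1 h.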
Starred values were filed as active, the others as inactive; ? = inconclusive; · = not tested or not shown; [ ] = dose if it differs, or a comment. An unsorted share of the library, and some 1.4% of all compounds hit somewhere here.

A first look:
SMILES	gsp antag	Six1-Eya2 blk	D2 potentiator	gsp agonist	D2 agonist	CtBP-E1A blk
COC(=O)COc1ccc2c(c1)O/C(=C\c1cccc([N+](=O)[O-])c1)C2=O	-9%	-9	5	-1%	-1.5	·
O=C(c1cccc(NS(=O)(=O)c2ccccc2)c1)N1CCN(c2ccccc2)CC1	-18%	5	-1	24%[15.4 µM]	-1.0	-5

Results (from the top)
SMILES	gsp antag	Six1-Eya2 blk	D2 potentiator	gsp agonist	D2 agonist	CtBP-E1A blk
COC(=O)COc1ccc2c(c1)O/C(=C\c1cccc([N+](=O)[O-])c1)C2=O	-9%	-9	5	-1%	-1.5	·
O=C(c1cccc(NS(=O)(=O)c2ccccc2)c1)N1CCN(c2ccccc2)CC1	-18%	5	-1	24%[15.4 µM]	-1.0	-5
CC(=O)N1N=C(C)CC1c1ccc(OCc2ccccc2)cc1 (stereo not drawn)	13%	6	-16	-24%	0.9	10
CN(Cc1ccccc1)C(=O)c1ccccc1C(=O)OCC(=O)N(Cc1ccccc1)C(C)(C)C	-24%	-7	-2	-24%	-4.3	-2
CCCCN(C(=O)CSc1nc2ccccc2s1)c1c(N)n(CCCC)c(=O)[nH]c1=O	-15%	8	1	26%[15.4 µM]	-5.8	4
Cc1ccc(CN2CC(C(=O)OCc3ccccc3Cl)CC2=O)cc1 (stereo not drawn)	2%	7	-2	-36%[inhibitor]	-1.0	16
O=C1CSC(=S)N1N=C1CCCCCC1	10%	-80*	16	26%	-7.5	-10
Cc1nn2c(COc3ccc(NC(=O)c4ccccc4)cc3)nnc2c2ccccc12	-4%	-1	-6	-14%	-0.6	·
Cc1nc2c([nH]1)C1(CCN(Cc3ccccc3)CC1)C(C#N)=C(N)O2	4%	1	8	-52%[inhibitor]	?	-5
CCOC(=O)N1CCN(C(=O)Cn2ncc3c2-c2ccccc2OC3)CC1	-6%	4	-6	-25%	-5.4	-19
CC(C)CN(C(=O)c1cc(Cl)nc2ccccc12)c1c(N)n(Cc2ccccc2)c(=O)[nH]c1=O	-8%	29	-18	24%	-6.1	0
O=C(Cc1cccc(NC(=O)C2CCCN(C(=O)C3CCCC3)C2)c1)Nc1cccc(C(=O)N2CCCCC2)c1 (stereo not drawn)	-5%	0	2	·	-1.5	7
C=CCSc1nc(C)c(Cc2cccc3ccccc23)c(=O)[nH]1	-15%	-3	-1	-22%	-0.1	-1
COc1cc(OC)c(OC)cc1/C=C1\CCC/C(=C\c2cc(OC)c(OC)cc2OC)C1=O	?	-15	-1	2%	-0.6	-4
CCCCC(=O)NC(=O)NC(c1ccccc1)c1ccccc1	-1%	4	1	-1%	0.7	·
O=C(CNC(=O)c1ccc2ccccc2c1)NC1CCCCC1	-2%	1	-18	3%[15.4 µM]	-0.2	4
CCN1C(Nc2ccccc2)=NC[C@@H]1C	?	7	-5	-19%	-1.9	4
Cc1cccc(N(Cc2ccccc2)C(=O)c2ccccc2F)c1	-22%	2	-3	7%	-0.5	15
COc1ccc(C(=O)NN2CCCCC2)cc1OC	1%	-2	-11	-33%[inhibitor]	0.5	-1
O=C(NCc1ccccc1)C(=O)NCC1CCCN1S(=O)(=O)c1cccs1 (stereo not drawn)	-6%	9	4	0%	-3.3	-2
O=C(Nc1nc2n(n1)C(c1ccc(Cl)cc1)CC(c1ccc(Cl)cc1)N2)c1ccco1 (stereo not drawn)	6%	-7	-15	1%	-2.7	-4
COc1ccc(C2=Nc3cc(C)ccc3OC2)cc1	-17%	7	21	-14%	-0.5	-1
Cc1ccc(C(=O)OCc2cc(=O)n3ccsc3n2)s1	-1%	3	-22	-1%[15.4 µM]	0.9	-6
COc1cc(NC(C)=O)c2ncccc2c1Br	·	1	-18	-38%[inhibitor]	-4.3	-3
CCNC(=O)C1(C)CCN(C(=O)c2cccc3ccccc23)C1 (stereo not drawn)	·	27	-3	·	-6.3	33
(further entries)
SMILES	gsp antag	Six1-Eya2 blk	D2 potentiator	gsp agonist	D2 agonist	CtBP-E1A blk
O=[N+]([O-])c1cccc(/C=N/Nc2cc(Cl)nc(-c3ccccc3)n2)c1	-1%	-6	11	25%	-1.8	-2
CCCC(=O)Nc1nnc(COC)s1	2%	4	1	-38%[inhibitor]	-1.4	0
CCOP(=O)(OCC)C(Nc1ccccc1)c1cccnc1 (stereo not drawn)	5%	15	-13	-28%	-3.0	·
CN(CC(=O)Nc1c(Cl)cccc1Cl)C(=O)CNC(=O)c1sc2ccccc2c1Cl	6%	2	1	?	0.2	·
Cn1c(SCC(=O)NC2CC2)nnc1C(F)(F)F	0%	7	-1	-64%[inhibitor]	-1.3	6
Cc1ccc(OCC(=O)N2CCc3ccccc32)cc1	1%	1	-6	0%	-1.5	0
OCC1(Cc2ccccc2)CCN(Cc2cccc(F)c2F)CC1	10%	4	-15	1%	-1.3	·
CC1CN(C(=O)N(C)C)CCN1C(=O)N(C)C (stereo not drawn)	6%	-22	6	?	-3.9	11
O=C(NCCc1nc2ccccc2[nH]1)c1cc([N+](=O)[O-])cc([N+](=O)[O-])c1	-2%	4	59*	3%	14	-1
CC(=O)Nc1ccc(S(=O)(=O)NCCSc2ccccn2)cc1	-7%	3	-6	-4%	-0.3	1
CCC1(c2ccccc2)NC(=O)N(CC(=O)NCc2ccncc2)C1=O (stereo not drawn)	7%	-6	-5	5%[15.4 µM]	0.6	1
O=C(CCCN1C(=O)/C(=C/c2cccs2)SC1=S)Nc1ccc(C(=O)O)cc1	-9%	-3	-6	-4%[15.4 µM]	-2.1	·
Cc1scc(C(=O)N/N=C/c2ccc(OCC(C)C)cc2)c1C	-10%	-2	-7	-2%	1.4	0
O=C(COC(=O)/C=C/c1ccco1)NCc1ccccc1	17%	8	-1	-9%[15.4 µM]	0.2	13
COc1cccc(NC(=O)CN2C(=O)CSc3ccc(S(=O)(=O)N4CCOCC4)cc32)c1	1%	1	-3	4%	2.0	·
O=C(O)CC1(c2ccc(F)cc2)C2CC3CC(C2)CC1C3 (stereo not drawn)	-5%	12	-5	19%	4.0	·
Cc1cccc(N2C(=O)C(Cl)=C(N3CCOCC3)C2=O)c1	-5%	-13	1	-1%[15.4 µM]	6.4	5
Cc1n[nH]c(C)c1S(=O)(=O)N1CCCCCC1	-1%	24	-10	22%	-2.7	0
O=[N+]([O-])/C=C/c1cc2ccccc2[nH]1	8%	1	-13	11%	-3.1	·
COc1cccc(CN(C)C(=O)c2cc(S(=O)(=O)N3CCCCCC3)ccc2OC)c1	-20%	2	-3	?	3.5	0
CCCCN1C(=O)C(=O)NC[C@@H]1CCCCN	8%	-14	-10	?	-1.3	-9
Cc1occc1-c1nnc(SCC(=O)NC(C)(C)C)n1CC(C)C	4%	12	-3	26%	4.2	3
COc1ccc(CCNC(=O)c2ccc3c(c2)S(=O)(=O)N=C2CCCCCN23)cc1OC	·	0	-11	-25%	-3.4	4
Cc1cc(NC(=O)CCC(=O)N(Cc2ccco2)C2(C(=O)NC3CCCCC3)CCN(C)CC2)no1	14%	3	4	-3%	-0.6	-1
O=C(COc1ccc(Cl)cc1Cl)Nc1ccc(Cl)cn1	7%	12	-10	-34%	0.7	17
New compounds follow.
SMILES	gsp antag	Six1-Eya2 blk	D2 potentiator	gsp agonist	D2 agonist	CtBP-E1A blk
C[C@H]1CCCCO[C@H](CN(C)Cc2ccncc2)[C@@H](C)CN([C@@H](C)CO)C(=O)c2cc(NS(=O)(=O)c3ccccc3)ccc2O1	·	6	2	?	-4.0	5
COc1ccc(CCN2C(=O)CC(NNC(=O)c3ccc(F)cc3)C2=O)cc1OC (stereo not drawn)	0%	7	-6	-46%[inhibitor]	1.1	5
COc1cc(CN2CCC(C(=O)NC(C)(C)C)CC2)ccc1OCc1ccccc1	·	6	-18	-3%	-4.9	2
CCOc1ccccc1NC(=O)CSC1=C(C#N)C(c2ccco2)C(C(=O)Nc2nc3ccccc3s2)=C(C)N1 (stereo not drawn)	-1%	6	-11	3%	-2.7	-8
CC(C)NC(=O)/C(=C/c1ccco1)c1ccccc1	10%	6	0	1%	-1.3	0
COc1ccccc1N1CCN(/N=C\C(Br)=C\c2ccccc2)CC1	-16%	-4	-11	1%	-3.3	-7
C/C(=N/NC(=O)c1ccc(Br)o1)C(C)C	6%	5	-2	2%	-1.5	0
COc1cccc(OCc2nnc(SC)n2C)c1	9%	2	-4	6%	-1.0	1
CCN(CC(=O)Nc1ccc(OC)cc1)C(=O)CN1C(=O)NC(C)(c2ccc3ccccc3c2)C1=O (stereo not drawn)	-20%	3	0	16%	-2.3	-4
CCCCC/C=N/NC(=O)c1[nH]c2ccc([N+](=O)[O-])cc2c1C	-3%	20	-8	17%	-1.6	-3
Cc1ccc(CCN2C(=O)c3ccccc3C2C(=O)NCc2cccnc2)cc1 (stereo not drawn)	-7%	3	1	2%[15.4 µM]	-1.4	-1
O=C(NCc1ccncc1)c1ccc(-c2ccc(F)c(F)c2)c2ccoc12	·	-5	-19	·	-5.2	-2
Cc1cccc(NC(=S)N/N=C/c2ccc([N+](=O)[O-])s2)c1	-16%	?	-18	-21%	-4.0	?
C=CCn1c(SCC(=O)N(CC)C2CCS(=O)(=O)C2)nc2scc(-c3ccccc3)c2c1=O (stereo not drawn)	?	-10	-7	20%	-0.9	6
Clc1ccc(OCc2nc(-c3ccccn3)n[nH]2)cc1	6%	-92*	11	-14%	-1.4	-94*
CCc1nc2c(OCc3ccccc3)cccn2c1N(C)C(C)=O	·	-2	-1	·	11	1
CC(=O)c1cccc(NC(=S)Nc2ccn(Cc3cccc4ccccc34)n2)c1	0%	-9	-1	-1%	-1.2	-1
Cc1ccc(S(=O)(=O)NC(=O)Nc2cc(C)no2)cc1	7%	4	-2	1%	0.9	·
Oc1c(Br)cccc1/C=N/Nc1c(F)c(F)c(F)c(F)c1F	?	8	-1	12%	2.3	-9
FC(F)(F)c1ccccc1NC(=S)Nc1cccc(Cl)c1	-1%	6	3	10%[15.4 µM]	-2.6	2
COC(=O)c1cc(OC)c(OC)cc1NC(=S)N1CCOCC1	2%	-1	-10	-4%	-2.7	-7
COc1ccc(-c2cc3ccccc3n2CC(O)Cn2nc(C)cc2C)cc1 (stereo not drawn)	-12%	-8	-12	-9%	-4.5	-4
CC1(C(=O)NS(=O)(=O)c2ccc(Cl)s2)CCN1C(=O)c1ccc(C2CCCCC2)cc1 (stereo not drawn)	·	-10	-1	·	8.7	3
COc1ccc(-c2noc(CCC(=O)N3CCN(c4cccc(F)c4)CC3)n2)cc1	-19%	1	·	·	-0.1	-2
COC(=O)c1cccnc1N1CCN(c2ccccc2F)CC1	1%	5	-17	-15%	3.0	4
NC(=O)COc1ccc(C23CC4CC(CC(C4)C2)C3)cc1	-13%	1	-6	25%	-2.4	·

Source: PubChem BioAssay
